Screening results as filed in PubChem BioAssay.
gsp ag – activates gsp, the McCune-Albright syndrome mutation. gsp mutant cells, cAMP HTRF, 30 min; control for the full effect not named in the record. Potency, µM (titrated, usually from 76.9 µM), without a hit: at the top dose activation (cAMP increase), hits mostly activators. 0.13% of 340,000 active. AID 624287; active = well fitted activation curve with a large enough effect; inconclusive = small, poorly fitted or top-dose-only effect, or another doubt; inactive = no such curve, though single readings can be large or run the other way; cell line not stated here;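 also: phosphodiesterase inhibitor Ro 20-1724 added with compounds to block cAMP breakdown; potency is read from the fitted curve at half-maximal effect; nearly all actives have a fitted effect of over 60% in size; about a fifth of the inactives were tested at one dose only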
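Cells in DMEM/10% FBS with G418 were pretreated with compounds in DMSO plus […] (300 uM stock) for 30 min at 37C. cAMP was measured by HTRF (cAMP-d2 plus anti-cAMP antibody-K) after 30 min at room temperature.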
gsp antag – antagonists of gsp mutant (McCune-Albright syndrome); Potency, µM (series often up to 76.9 µM), for inactives: top-dose activity change, negative = inhibition, actives largely listed as inhibitors; gsp-mutant cells, cAMP HTRF, 30 min; control for the full effect not named in the record; 0.4% of 340,000 active; active = falling curve of any shape with a large fitted effect; inconclusive = falling curve, mostly with a smaller effect; inactive = flat or rising curve; cell line not stated here;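 also: intracellular cAMP measured with PDE inhibitor Ro 20-1724 present during compound exposure; potency is read from the fitted curve at half-maximal effect; % is scaled to controls: 0 for no effect and ±100 for the full control effect; nearly all actives have a fitted effect of over 65% in size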
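Cells, 2000/well, grown 16–24 h in DMEM 10% FBS with 0.5 mg/ml G418, then compounds plus […] (300 uM addition stock), 30 min at 37C. cAMP read by HTRF (cAMP-d2 and anti-cAMP antibody-K in lysis buffer) after 30 min RT.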
Menin MLL FP FL – menin-MLL binding inhibition, fluorescein peptide. Fluorescence polarization, fluorescein-MLL peptide displacement from menin. FP activity change, % at 61.4 µM. 290,000 tested, under 10 active. AID 1766; inconclusive = falling polarisation curve, or a change in total fluorescence; inactive = total fluorescence flat and polarisation flat or rising; no compound was filed as active; the % refers to the polarisation; negative = inhibition;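 also: % of control where 0% means no effect; inhibitors lower the polarisation; unlabelled MLL peptide was the positive control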
Sfp PPTase inh – inhibitors of Bacillus subtilis Sfp phosphopantetheinyl transferase | Q9F4F7 | Biochemical Sfp PPTase activity, qHTS | Potency, µM, without a hit: max response, negative = inhibition, most hits filed as inhibitors | 3.5% of 310,000 active | AID 1490; active = well fitted inhibition curve with a large enough effect; inconclusive = small, poorly fitted or top-dose-only effect, or another doubt; inactive = no such curve, though single readings can be large or run the other way;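 also: the enzyme is Sfp with the accession as filed and its product quenches rhodamine fluorescence; potency is read from the fitted curve at half-maximal effect; 0% = enzyme reaction without inhibitor and -100% = no enzyme wells; top concentration of the series not given in the record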
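Fluorescence-quenching assay with 15 nM Sfp, 5 uM rhodamine-CoA and 12.5 uM BHQ-2-labelled ybbR peptide in pH 7.6 Hepes/MgCl2 buffer. Enzyme was pre-incubated with compound for 15 min at room temperature. Rate was taken from the 30-min fluorescence change (525/598 nm).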
ClpP mod – qHTS Assay for Activators of ClpP. ATP-dependent Clp protease proteolytic subunit (Bacillus subtilis (strain 168)), P80244. purified B. subtilis ClpP, FRET peptide cleavage, 20 min. Potency, µM (top dose mostly 57.5 µM), without a hit: at the top dose activity change, negative = active. 1.9% of 340,000 active. AID 651965, 2013; active = well fitted falling curve with a large enough effect; inconclusive = small, poorly fitted or top-dose-only effect; inactive = no such curve, though single readings can be large or run the other way; also: potency is read from the fitted curve at half-maximal effect; the source files actives as falling curves though it sought activators and does not explain the sign; nearly all actives have a fitted effect of over 65% in size; many hits overshoot -100%
Target sequence (P80244 whole entry, looked up): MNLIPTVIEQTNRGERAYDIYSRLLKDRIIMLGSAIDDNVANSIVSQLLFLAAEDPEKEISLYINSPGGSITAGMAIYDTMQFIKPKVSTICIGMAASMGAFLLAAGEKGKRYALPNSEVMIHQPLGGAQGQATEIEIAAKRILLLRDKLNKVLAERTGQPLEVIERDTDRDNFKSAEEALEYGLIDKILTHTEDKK
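FRET quenching reversal measured ClpP activation: 10 microg/mL B. subtilis ClpP at pH 8 with the FRET-FV decapeptide, read at 430 nm after 320 nm excitation. The 20-min minus 0-min signal was scaled between DMSO/no-enzyme wells and ADEP (5.8 microM final).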
TRPV1 potentiator – human TRPV1 potentiation. Q8NER1. TRPV1-expressing cells, Fluo-8 calcium influx, capsaicin EC20 potentiation; host cell line not named in the record; control for the full effect not named in the record. potentiation, % at 8.33 µM. 0.02% of 320,000 active. AID 540277; active means potentiation above 80%; inconclusive means 30% to 80%; inactive means below 30%; also: 0% is about no effect
Target sequence (Q8NER1 whole entry, looked up): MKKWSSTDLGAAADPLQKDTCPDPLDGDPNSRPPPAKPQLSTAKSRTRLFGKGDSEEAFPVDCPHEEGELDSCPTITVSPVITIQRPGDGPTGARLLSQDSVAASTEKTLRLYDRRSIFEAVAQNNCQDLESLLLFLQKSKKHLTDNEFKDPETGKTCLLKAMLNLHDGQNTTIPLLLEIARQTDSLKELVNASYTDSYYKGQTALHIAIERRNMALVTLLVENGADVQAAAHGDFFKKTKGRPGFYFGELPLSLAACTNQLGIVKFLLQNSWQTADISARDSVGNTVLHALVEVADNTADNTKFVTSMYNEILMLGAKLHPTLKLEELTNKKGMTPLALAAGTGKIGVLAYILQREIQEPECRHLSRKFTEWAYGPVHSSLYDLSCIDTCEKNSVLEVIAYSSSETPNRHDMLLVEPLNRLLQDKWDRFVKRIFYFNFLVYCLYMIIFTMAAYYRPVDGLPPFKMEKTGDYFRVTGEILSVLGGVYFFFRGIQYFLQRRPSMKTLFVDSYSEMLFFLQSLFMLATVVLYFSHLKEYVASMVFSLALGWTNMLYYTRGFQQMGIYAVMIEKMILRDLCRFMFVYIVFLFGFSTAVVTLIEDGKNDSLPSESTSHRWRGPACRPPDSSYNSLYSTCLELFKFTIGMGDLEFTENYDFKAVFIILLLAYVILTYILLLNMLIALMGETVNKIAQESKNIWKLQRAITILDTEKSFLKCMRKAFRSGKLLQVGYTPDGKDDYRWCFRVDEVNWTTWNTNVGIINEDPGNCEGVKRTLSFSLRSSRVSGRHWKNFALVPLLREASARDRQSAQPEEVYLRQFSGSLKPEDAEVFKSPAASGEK
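Cells expressing TRPV1 were dye-loaded with Fluo-8 and read kinetically: 10 s baseline, 3 min after compound (agonist portion), then 2 min after EC20 capsaicin (allosteric enhancer portion). Calcium-bound dye fluorescence at 480/520 nm.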
CtBP-E1A inh – CtBP/E1A binding inhibition; AlphaScreen GST-E1A/His-CtBP binding, 1536-well; hits give low values; control for the full effect not named in the record; activity change, % (no concentration beside the values); 0.49% of 340,000 active; in the data active means activity change below about -65%; inconclusive means about -30% to -65%; inactive means above about -30%; also: % is scaled to controls: 0 for no effect and ±100 for the full control effect; compound concentration not given in the record
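Protein mix (5X: 125 nM each GST-E1A, His-CtBP) was incubated with pinned compound 2 h at 37 deg C in dark, in 50 mM Tris pH 8.0 buffer with 300 mM NaCl. Glutathione donor and nickel acceptor beads followed; AlphaScreen signal read after 1 h.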
* marks the source's active call; other numbers are inactive results; ? = inconclusive; nt = no result given; & = joins results of further samples; [ ] = dose if it differs, or a comment.

Values run as follows: gsp ag, gsp antag, Menin MLL FP FL, Sfp PPTase inh, ClpP mod, TRPV1 potentiator, CtBP-E1A inh
> CCOc1ccc(C(=O)C(C)OC(=O)Cn2[nH]c(=O)c3ccccc3c2=O)cc1 (configuration not stated)
→ -71%[inhibitor], -3%, nt, 6%, 5.6%, -3, -6
> N#Cc1c(SCc2ccccc2)nc(N2CCOCC2)c2c1CCCC2
→ -14%, -17%, -1.8, ?, ?, 29, 3
> COc1ccc(NC(=S)NCCCn2ccnc2)cc1
→ -18%, 4%, nt, nt, -0.9%, nt, 3
> Cc1c(C(=O)NC2CCCC2)oc2ccccc12
→ -32%[inhibitor], -3%, nt, nt, -2.3%, -22, -1
> CC1C=CC(C)C(C(=O)c2ccccc2)C1C(=O)c1ccccc1 (configuration not stated)
→ -1%, nt, nt, nt, 0.5%, nt, 3
> O=C(NC(=S)Nc1ccccc1N1CCCC1)c1ccccc1[N+](=O)[O-]
→ -51%[inhibitor], -9%, -0.3, 16%, 1.3%, 8, -20
> CCCCC(=O)Nc1ccc(C(=O)NN2C(=O)c3ccccc3C2=O)cc1
→ -26%, 6%, 2.4, 3%, -0.1%, 6, -8
> CC(C)CCn1c(SCC(=O)NC2CCS(=O)(=O)C2)nc2cc(Cl)ccc2c1=O (configuration not stated)
→ 11%[15.4 µM], -6%, nt, nt, nt, -28, 6
> Cc1nc(NC(=O)COC(=O)CCc2ccccc2)c(Cl)cc1Cl
→ 2%, 6%, nt, nt, -4.5%, nt, nt
> CC(C)Cn1c2nc3ccccc3nc2c2c(=O)n(CCN3CCOCC3)cnc21
→ -21%, -10%, -5.2, 16%, ?, 25, -6
> Cc1c(NS(=O)(=O)N2CCCCC2)c(=O)n(-c2ccccc2)n1C
→ -62%[inhibitor], 9%, 1.0, 7%, -1.6%, 20, 1
> OC12CCCCC1C(c1ccc3c(c1)OCO3)N(Cc1ccccc1F)CC2 (configuration not stated)
→ -34%[inhibitor], 8%, 5.9, 2%, -1.1%, 12, -25
> Cc1cc(NS(=O)(=O)c2ccc(NC(=O)CCCOc3cccc(C)c3C)cc2)no1
→ 6%[15.4 µM], -12%, nt, 15%, -0.3%, -5, 0
> O=C(O)CN1CCN(Cc2ccc(Cl)cc2)C1=O
→ -9%, 10%, 1.1, -3%, 1.6%, 2, -5
> C=CCN1/C(=C(\C#N)C2=NS(=O)(=O)c3ccccc32)N(C)c2ccccc21
→ 5%, -5%, 6.1, -7%, -2.4%, -5, 2
> Cc1cc(NC(=O)c2ccc(-c3ccc(F)c(Cl)c3)o2)no1
→ 1%, -10%, -0.1, 10%, ?, -8, nt
> COc1cc(NS(=O)(=O)c2ccc(Nc3nc(-c4ccccn4)cs3)cc2)nc(OC)n1
→ 12%[15.4 µM], ?, 0.4, 1%, nt, 7, -76*
> CCOC(=O)N1CCN(S(=O)(=O)c2ccc(C(=O)Nc3sc4c(c3C(N)=O)CCN(CC)C4)cc2)CC1
→ -6%, ?, nt, -6%, -5.3%, 22, -9
> Oc1ccc(/C=N/NC(=S)NCC2CCCO2)cc1 (configuration not stated)
→ 0%, 12%, -1.8, 18%, -13%, 1, -4
> CCOc1ccccc1OCCCC(=O)N1CCN(S(=O)(=O)c2cc(F)ccc2F)CC1
→ 0%, -14%, nt, nt, -1.1%, nt, -3
> Cc1ccc(C(=O)N2CCCC(C(=O)c3cc(F)ccc3F)C2)s1 (configuration not stated)
→ 4%, 4%, -0.1, 17%, -0.2%, -11, 3
> CC(C)(C)NC(=O)C1N(c2cccnc2)C(=O)C2C(C(=O)Nc3ccccc3F)C3(C)C=CC21O3 (configuration not stated)
→ -50%[inhibitor], 2%, -1.4, -13%, -0.4%, ?, -7
> CCN(C[C@H]1N[C@@](CC)(C(=O)OC)[C@H]2C(=O)N(C)C(=O)[C@@H]12)S(=O)(=O)c1ccc(-c2ccccc2)cc1
→ nt, -9%, nt, nt, 0.5%, nt, -14
> O=C(OCc1nnc(-c2ccccc2)o1)c1cc2ccccc2cc1O
→ -77%[inhibitor], -12%, 5.3, -1%, -1.8%, 2, nt
> CC1=NN(C(N)=S)C(=O)C1N=Nc1ccc(F)cc1 (configuration not stated)
→ -12%, -13%, 1.0, -26%, 1.0%, 14, nt
> O=C(CSc1nc2ccccc2c(=O)n1-c1ccccc1)N1CCN(CCO)CC1
→ -16%, 3%, -0.5, 18%, 1.0%, -4, 11
> COc1ccc(Cn2nnnc2C(c2cc3cccc(C)c3[nH]c2=O)N2CCN(C)CC2)cc1 (configuration not stated)
→ 17%, -5%, -2.6, 16%, -28%, 2, nt
> CSc1nnc2ccc(-c3cccs3)nn12
→ 4%[15.4 µM], 5%, -2.2, 14%, nt, -1, -18
> CCN(CC)CCNc1nc(-c2ccccc2)c2c(c1C#N)CC(C)(C)OC2
→ 18%, 0%, 0.2, 23%, ?, -9, 4
> Cc1ccc(NC(=O)C2CCCN(S(=O)(=O)c3ccc4[nH]c(=O)ccc4c3)C2)c(C)c1 (configuration not stated)
→ 57%, 0%, -1.5, 1%, 8.9%, 1, 2

For reference, 5 of the compounds above.
Values run as follows: gsp ag, gsp antag, Menin MLL FP FL, Sfp PPTase inh, ClpP mod, TRPV1 potentiator, CtBP-E1A inh
> Cc1c(C(=O)NC2CCCC2)oc2ccccc12
→ -32%[inhibitor], -3%, nt, nt, -2.3%, -22, -1
> CC1C=CC(C)C(C(=O)c2ccccc2)C1C(=O)c1ccccc1 (configuration not stated)
→ -1%, nt, nt, nt, 0.5%, nt, 3
> O=C(NC(=S)Nc1ccccc1N1CCCC1)c1ccccc1[N+](=O)[O-]
→ -51%[inhibitor], -9%, -0.3, 16%, 1.3%, 8, -20
> CCCCC(=O)Nc1ccc(C(=O)NN2C(=O)c3ccccc3C2=O)cc1
→ -26%, 6%, 2.4, 3%, -0.1%, 6, -8
> CC(C)CCn1c(SCC(=O)NC2CCS(=O)(=O)C2)nc2cc(Cl)ccc2c1=O (configuration not stated)
→ 11%[15.4 µM], -6%, nt, nt, nt, -28, 6

Further structures follow.
Values run as follows: gsp ag, gsp antag, Menin MLL FP FL, Sfp PPTase inh, ClpP mod, TRPV1 potentiator, CtBP-E1A inh
> CN1C(=O)/C(=C2\SC(=S)N(C(CCC(=O)O)C(=O)O)C2=O)c2ccccc21 (configuration not stated)
→ -14%, -8%, 8.7, -24%, -0.7%, 1, -12
> O=C(CSc1nc2ccccc2c(=O)n1-c1ccccc1)N/N=C/C=C/c1ccccc1[N+](=O)[O-]
→ ?, -27%, -7.6, -5%, -1.3%, -8, -17
> O=S(=O)(CC(CN1CCCCC1)N1CCCCC1)c1ccc2ccccc2c1 (configuration not stated)
→ 18%, 8%, -2.0, 1%, nt, -5, 3
> COCCNc1cnn(-c2ccccc2)c(=O)c1Cl
→ -17%, 4%, -3.6, 9%, nt, -3, 4
> Cc1c(C(=O)O)nn(-c2ccccc2)c(=O)c1C#N
→ ?, 3%, 3.8, 0%, -4.6%, nt, 3
> CSCC[C@H](NC(=O)OC(C)(C)C)c1nnc(SCC(=O)Nc2c(C)cccc2C)o1
→ 28%, 0%, 4.5, 16%, 0.6%, -1, -2
> CC(C)CCNC(=O)COc1cccc2c1OC(C)(C)C2
→ -36%[15.4 µM], -2%, 0.5, 10%, nt, -23, 1
> COc1ccccc1S(=O)(=O)Cc1ccc(C(=O)NC2CCCCCC2)o1
→ 11%, -4%, -0.9, 13%, -1.3%, -7, 3
> COc1cc2c(cc1OC)C(Nn1cnnc1)=NC1(CCCC1)C2
→ 14%[15.4 µM], 2%, 3.4, 14%, nt, -8, 4
> CCOc1ccc(Cl)cc1S(=O)(=O)n1cnc2cc(C)c(C)cc21
→ 2%, 8%, -0.2, -20%, -0.6%, -5, 0
> COC(=O)Cn1c(O)c(N=NC(=O)OC)c2ccccc21
→ -32%, 8%, -1.0, 5%, -1.8%, 0, -18
> CCn1c(=O)n(CC)c2cc(NS(=O)(=O)c3ccccc3)ccc21
→ -1%, -13%, 2.6, 15%, 1.4%, -1, -9
> COCCN1Cc2cccc(C(=O)NCC3CCN(CC(C)C)C3)c2C1=O (configuration not stated)
→ ?, 0%, 0.7, -3%, nt, 0, 10
> CC(=O)Nc1ccc(S(=O)(=O)Nc2nnc(C)s2)cc1
→ ?, nt, nt, nt, 0.1%, nt, 4
> C=CCNc1nc(C(=O)OCC(=O)NCc2cccc(Cl)c2)cs1
→ -23%, 9%, nt, nt, -3.3%, -5, 0
> O=S(=O)(Nc1cccc(-c2nc3cccnc3s2)c1)c1ccc2c(c1)CCCC2
→ 6%, -11%, 0.1, 6%, ?, -11, -11
> Cc1ccc(-n2[nH]c(C)c(/C=N/Nc3ccc([N+](=O)[O-])cc3[N+](=O)[O-])c2=O)cc1
→ ?, 32µM*, 7.6, 3%, 0.1%, 20, -2
> Cc1cccc(/C=C/c2onc(C)c2S(=O)(=O)N2CCC(C(=O)N3CCCCC3)CC2)c1
→ 28%, -25%, nt, -13%, -21%&-1.8%, -3, -9
> COc1cc2c(cc1OC)C(c1ccc(-c3ccc(Cl)c(Cl)c3)o1)=NCC2
→ ?, -2%, 5.2, 20µM*, -15%&-3.6%, -7, -18
> COC(=O)c1nn(C23CC4CC(CC(C4)C2)C3)c2c1C(=O)N(c1ccc(Br)cc1)C2=O
→ 0%, 7%, -0.3, 15%, -0.9%, 1, 2
> COc1ccc(S(=O)(=O)N(C)C)cc1NC(=O)Cc1cccs1
→ -14%, 4%, 2.7, 16%, 1.2%, 23, 3
> CCN(CC)C(=O)C1CCCN(C(=O)c2cc(COc3ccc4ncccc4c3)on2)C1 (configuration not stated)
→ ?, ?, nt, 5%, -3.3%, 17, 1
> C[C@@H](CN1CCC[C@H]1CN1C(N)=NC[C@@H]1Cc1ccccc1)N1C[C@@H](Cc2ccccc2)N(CCc2ccc(Cl)c(Cl)c2)C1=N
→ nt, 7%, nt, nt, 1.4%, nt, -4
> CC(C)c1onc(C(=O)Nc2ccc3c(c2)OCO3)c1[N+](=O)[O-]
→ ?, 1%, nt, 4%, 1.4%, -15, nt

This is a random part of the collection, and some 5.3% of all compounds hit somewhere here.
